NPYLR7 ag: activates Aedes aegypti NPYLR7 receptor; actives 0.15% (n = 270,000); HEK293T NPYLR7/Galpha15, GCaMP6s calcium fluorescence; AID 1259423; activation, % at 10 µM; in the data active = activation above about 40%;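 also: 0% = vehicle and 100% = reference agonist at the receptor; some compounds past the cut are filed as inactive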
NPYLR7 ag max-min: further read-out of NPYLR7 ag, marked with its call; activation, %; measured here: Max-Min RFU normalised activation; some inactives read as strong as hits;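 span of the calcium signal over five minutes; 0% = vehicle and 100% = native peptide agonist; compound fluorescence can raise it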
* = called active by the depositor; & = joins results of further samples. An excerpt, so the mix of outcomes need not match the whole.

SMILES	NPYLR7 ag	NPYLR7 ag max-min
O=S1(=O)c2cccnc2OC(CN2CCOCC2)CN1Cc1cccs1 (centres undefined)	6	9
CC(C)=CCC/C(C)=C/CNC(=O)c1cncn1-c1ccc(-c2ccc(F)c(F)c2)cc1	2	1
COc1cccc(CN(CC2CC(c3ccc4c(c3)OCO4)=NO2)C(=O)NC(C)C)c1 (centres undefined)	-1	9
CN(CC1(CO)CCCC1)c1ccnc(C(=O)NCc2cccnc2)c1	6	3
CNC(=O)CCc1csc(NC(=O)Nc2ccc(OC)cc2)n1	11	11
COc1cn(CC(=O)N2CCCc3ccccc32)c(CSc2ncccn2)cc1=O	-3	-6
Cc1cccc(C(=O)N(Cc2ccco2)Cc2cc(NC(=O)c3cccc(F)c3)ccc2N(C)C)c1	7	20
CC(NS(=O)(=O)c1cnn(C)c1)C(=O)N1CCc2ccccc2C1 (centres undefined)	7	2
Cc1ccc(-n2c(SCc3ccc(C(=O)NCc4ccco4)cc3)nnc2-c2ccncc2)cc1	15	20
CC(=O)c1cccc(N2C(=O)C3C4C=CC(C4)C3C2=O)c1 (centres undefined)	1	-1
CC(C(=O)N(C)Cc1ccc(Br)o1)n1cncn1 (centres undefined)	1	0
CC(C)C(Nc1ccc(S(=O)(=O)N2CCOCC2)cc1[N+](=O)[O-])c1ccccc1 (centres undefined)	1	-4
CCNC(=S)NCc1ccc2c(c1)cc(C)n2C	6	12
CN(Cc1cc2n(n1)CCCNC2)CC1COCCO1 (centres undefined)	4	2
Cc1cccc(Cl)c1NC(=O)N1CCCCC1CCN1CCOCC1 (centres undefined)	4	7
C=CCn1c(SCC(=O)c2[nH]c(C)c(C(C)=O)c2C)nc2sc3c(c2c1=O)CCC3	-12	-15
Cc1cc(O)c(C=Nc2ccc(Br)cc2)c(=O)o1	0	-1
CN1C[N+]([O-])=C(c2ccccc2)C1(C)C	1	-6
COc1cc(C(=O)OCC(=O)c2ccc(C3CCCCC3)cc2)c([N+](=O)[O-])cc1OC	0	1
CCc1noc(CN2CCc3onc(C(c4ccccc4)c4ccccc4)c3C2)n1	1	-4
COc1ccc(OCCOc2ccc(Cl)c(C)c2)cc1	20	10
COCC(O)CN1CCC(N(C)Cc2noc(C(C)C)n2)C1 (centres undefined)	4	1
CCN(CC)C(=O)c1c(-c2ccccc2Cl)noc1C	-7	-12
CC(=O)N1N=C(c2cccnc2)OC1C(=O)N1CCC(O)(c2ccccc2)CC1 (centres undefined)	11	8
CCOc1ccc(NC2CC(=O)NC2=O)cc1 (centres undefined)	-4	0
SMILES	NPYLR7 ag	NPYLR7 ag max-min
COC(=O)C(c1ccc(C(C)(C)C)cc1)C1C=CC(NC(=O)c2cc(F)cc(C(F)(F)F)c2)C1 (centres undefined)	5	-1
Cn1c(=O)c2c(-c3ccccc3)n(NC(=O)COc3ccccc3)cc2n(C)c1=O	-13	-20
O=C(C1CC2C=CC1C2)N1CCc2cc(S(=O)(=O)NC3CCCC3)ccc21 (centres undefined)	7	9
CNc1ccc(-c2ccccc2C(C)=O)cn1	5	2
Cn1c(C(=O)NCCCN2CCCC2=O)cc2c(=O)n3ccccc3nc21	2&6	-1&3
COc1ccc(C(=O)NC2CCN(c3ccccc3C(=O)NCc3cccc(C(F)(F)F)c3)CC2)cc1	-14	-7
CN(C)c1cc(N(C)CC2CC(=O)N(C(C)(C)C)C2)ncn1 (centres undefined)	-2	24
O=C(c1cc(-c2ccc(F)cc2)nn1-c1cccc(Cl)c1)N1CCN(C(c2ccccc2)c2ccccc2)CC1	1	16
O=C(CSc1ccc(F)c(F)c1)N1CCC(NS(=O)(=O)c2cccs2)CC1	5	2
CCn1ccnc1Cn1nc(C2CCNCC2)n(CC)c1=O	3	1
COc1ccc2[nH]c(C(=O)N3CCCC(CCc4ccc(F)cc4)C3)c(C)c2c1 (centres undefined)	8	5
COCCn1cc(NC(=O)NCCCc2ccccc2)c2ccccc21	12	5
CCN(C(=O)C(C)Nc1ccc(F)c(NC(C)=O)c1)c1ccccc1 (centres undefined)	15	15
CN(C)CCCn1c(=S)[nH]c2sc3c(c2c1=O)CCCC3	1	23
COc1ccc(-c2nc(NCc3ccco3)c3ccc(Cl)cc3n2)cc1	-4	9
Cc1nc([N+](=O)[O-])c(N2CCOCC2)n1Cc1ccccc1	1	1
O=C1CC(c2cccc3nsnc23)c2c(nc3sccn23)CN1 (centres undefined)	9	-5
Cc1cccn2c(CNCCCn3ccc4ccccc43)c(C(=O)N3CCOCC3)nc12	9	0
O=C1COc2ccc(C3=NNC(=Nc4ccccc4Cl)SC3)cc2N1	-4	-3
CCc1ccc(NC(=O)NCCCn2nc(-c3ccc(C)cc3)ccc2=O)cc1	-3	-4
O=C(CCCN1CCCC1=O)NC1CCCN(C2CCCCCC2)C1 (centres undefined)	2	2
COc1ccc(OCCSc2ccc(S(=O)(=O)NC(C)(C)C)cc2[N+](=O)[O-])cc1	-1	6
CC(=O)N(c1cccc(Cl)c1)c1nc(C=C2N=C(c3ccc(F)cc3)OC2=O)cs1	5	56
N#Cc1cn(CC(=O)NCC(F)(F)F)c2ccccc2c1=O	7	2
C=CS(=O)(=O)C(C)CC(N)=O (centres undefined)	1	-12
SMILES	NPYLR7 ag	NPYLR7 ag max-min
Cc1ccc(NC(=O)CNC(=O)CNC2CC2)cc1	-4	0
Cc1nc(C#N)c(NCc2ccco2)o1	3	0
CCCn1c(=O)c2c(=S)nc(C3CCC3)[nH]c2n(CCC)c1=O	5	5
COc1cccc(CC2(CO)CCCN(Cc3ccccc3-c3ccco3)C2)c1 (centres undefined)	-2	4
COc1ccc(-c2cc(C(=O)N3CCN(Cc4ccccc4)CC3)nc3c(-c4ccccc4)c(C)nn23)cc1	8	12
COc1ccc(NC(=O)NCc2nnc(SCc3ccccc3)n2-c2cc(Cl)ccc2C)c(OC)c1	7	5
CCCCN(CC(=O)N(CCc1c[nH]c2ccccc12)Cc1ccccc1)C(=O)Nc1ccc(C)c(C)c1	-3	-9
COC(=O)c1ccc2c(c1)CC(CNC(=O)c1ccco1)O2 (centres undefined)	21	15
CCOc1ccccc1NC(=O)N(CC(=O)N(Cc1cccn1C)C1CC1)CC(C)C	-6	2
O=C(CCC1CCN(Cc2ccc3nsnc3c2)CC1)N1CCN(c2ccccc2)CC1	6	7
C=CCn1c(=O)c2c(ncn2Cc2ccccc2Cl)n(-c2cccc(F)c2)c1=O	3	4
CCOc1ccc(CC(=O)N2CCN(c3ccc(NC(=O)c4ccccc4)nn3)CC2)cc1	7	0
CCc1nc(CN(C)Cc2ccc(OC)c(C)c2C)no1	14	13
COc1ccc(S(=O)(=O)CCC(=O)N=c2sc3ccc(OC)cc3n2CCSC)cc1	-3	-4
O=C(NC1CC2CCC(C1)N2Cc1ccc2c(c1)OCO2)c1cccc2c1-c1ccccc1C2=O (centres undefined)	2	9
O=C(CN1CSCC1=O)NCc1ccccc1Cl	10	12
COc1ccc(OC)c(C2CC(c3cccnc3)=Nc3nnnn32)c1 (centres undefined)	8	2
CC(C)(C)C(=O)NCC(=O)N1CCCC1c1ccsc1 (centres undefined)	-1	-2
Cc1cc(C)c(C)c(OCc2nc(CN(C(=O)Cc3ccccc3)C3CC3)cs2)c1	-1	3
COc1cc(C2=N/C(=C\c3coc4c(Cl)cc(Cl)cc4c3=O)C(=O)O2)cc(OC)c1OC	-2	-6
CCc1noc(C)c1C(=O)N1CCC(n2nccc2NC(=O)CCCc2ccccc2)CC1	-1	-7
O=C(NC12CC3CC(CC(C3)C1)C2)N(Cc1cccc(OS(=O)(=O)c2cccc(C(F)(F)F)c2)c1)Cc1ccco1	0	1
O=C(OCc1cccc(F)c1F)c1c[nH]c2ccccc12	-10	-15
CSc1nc2ncc(-c3ccccc3)c(N)n2n1	-3	-12
COc1cccc(OCc2nc(C(=O)NCc3cccnc3)cs2)c1	9	7
SMILES	NPYLR7 ag	NPYLR7 ag max-min
COc1ccc(C(=O)CSc2nnc(-c3cccs3)n2-c2cccc(C)c2)cc1	-1	11
COc1ccc(-c2cc(C(=O)N3CCC4(CC3)OCCO4)n3nc(C(C)(C)C)cc3n2)cc1	8&-16	7&-3
CCn1c(SCC(=O)c2ccc(Br)s2)nnc1-c1cccs1	6	9
O=[N+]([O-])c1ccc(C2Nc3ccc(Br)cc3C(c3ccccc3)O2)cc1 (centres undefined)	9	14
CCNc1ccnc(-c2cccc3[nH]ccc23)n1	0	-1
O=C(Nc1ccc(F)cc1)N1CCC(Cc2ccc(F)cc2)CC1	-3	-15
CCCc1nnc2sc(-c3ccc[nH]3)nn12	2	-2
CC(C)NC(=O)c1cccc(NC(=O)CC2SC(N3CCCCC3)=NC2=O)c1 (centres undefined)	-1	-2
COc1ccc(C2=N/C(=C\C(C)=C\c3ccccc3)C(=O)O2)c(Cl)c1	-10	-13
CCOC(=O)c1ccc2c(c1)nc(SCc1cccc(C#N)c1)n2Cc1ccccn1	4	-2
CN(C)C(CC(=O)Nc1ccc(Nc2ccccc2)cc1)C(=O)O (centres undefined)	12	6
O=C(CCOc1ccccc1)Nc1ccnn1C1CCN(Cc2ccc(CO)o2)CC1	-1	-1
CCc1ccccc1OCCN(C)C(=O)CC1C(=O)N(C)C(=O)N1C (centres undefined)	13	7
O=C(CN1CCN(C(=O)CN2CCCCC2)CC1)Nc1cccc(F)c1	0	9
COc1cc2c(cc1OC)CN(C1CCCN(Cc3ccc4cccc(F)c4n3)C1)CC2 (centres undefined)	10	9
O=C(CN1CCN(S(=O)(=O)c2ccc(F)c(F)c2)CC1)NC1CCCCCC1	7	10
CCc1nc2ccc(C(=O)NCCCN(C)C)cn2c1N(C)C=O	2	28
COc1ccccc1-c1cc(C(=O)NCc2ccco2)n2nc(C(C)(C)C)cc2n1	15	13
COc1ccc(S(=O)(=O)CC(=O)N2CCNC(=O)C2(C)C)cc1	-1	-3
O=C(CNS(=O)(=O)c1ccccc1)NNC(=O)c1ccc(Cl)cc1	3	-4
CO[C@H]1CN(C(=O)NC2CCCCC2)[C@H]2Cc3c([nH]c4ccccc34)[C@@H]1C2	13	17
O=C(Nc1ccccc1OCC(F)(F)F)C1CCOCC1	2	1
C#CCOCC(O)CN(Cc1cccc(Cl)c1)CC1CC(c2ccccc2Cl)=NO1 (centres undefined)	-3	3
C[C@@H](NC(=O)[C@@]1(O)C[C@@H](O)[C@H](O)[C@@H](NC(=O)NC2CCCCC2)C1)C(N)=O	-7	-15
CCO[C@H]1COC[C@@H]1NC(=O)CCc1c(C)nn(C)c1C	14	3

In a second layout: three of the compounds above
smiles | NPYLR7 ag | NPYLR7 ag max-min
O=C(Nc1ccc(F)cc1)N1CCC(Cc2ccc(F)cc2)CC1 | -3 | -15
O=C(CCOc1ccccc1)Nc1ccnn1C1CCN(Cc2ccc(CO)o2)CC1 | -1 | -1
O=C(CNS(=O)(=O)c1ccccc1)NNC(=O)c1ccc(Cl)cc1 | 3 | -4

Further structures
SMILES	NPYLR7 ag	NPYLR7 ag max-min
Cc1ccccc1NCC(=O)N/N=C\c1cc2ccccc2nc1Cl	1	0
Cc1noc(CSc2ccc(C(=O)Nc3cc(F)cc(F)c3)cc2)n1	5	2
CCc1nc(C)c(C(=O)N(C)Cc2snnc2C)o1	2	1
COc1ccccc1N1C(=O)C2C3C=CC(CO)(O3)C2C1=O (centres undefined)	0	-2
Cn1c(=O)[nH]c(=O)c2c1nc(SCc1ccc(F)cc1)n2CCCc1ccccc1	2	8
O=C(O)/C(=C/c1ccc(Br)cc1)c1ccc(S(=O)(=O)N2CCCC2)s1	-2	-2
Cc1nc2n(n1)C(=O)C(C(c1ccc(Br)cc1)N1CCc3ccccc3C1)S2 (centres undefined)	16	15
Cc1ccccc1-c1ncc(CN2CCCC2Cn2cccn2)s1 (centres undefined)	-4	-8
CC1(Cc2cccc(C(F)(F)F)c2)C(=O)Nc2cc(-c3ccccc3Cl)ccc21 (centres undefined)	2	1
O=C1C(=Cc2ccccc2)C(=O)N(c2ccccc2)C(=S)N1c1ccccc1	2	-6
Cc1cccc2oc(=O)n(C3CCN(C(=O)C(C)Oc4ccccc4)CC3)c12 (centres undefined)	20	25
Cc1ncsc1CCN(C)Cc1cnc(N)nc1	5	1
Cc1c(C(=O)Nc2ccc(NC(=O)CN3CCOCC3)cc2)oc2ccc(Cl)cc12	2	4
CCCn1c(SCc2cc(=O)n3ccsc3n2)n[nH]c1=O	2	10
CC(C)CN1CCC(CNC(=O)c2ccc(-c3cccnc3)nc2)C1 (centres undefined)	-4	-7
CCOC(=O)C1=C(C)N(C)C(=O)C1CC(=O)O (centres undefined)	8	5
CCCN(CC#N)C(=O)c1cnc(Cc2ccc(F)cc2)s1	1	-3
CN1CCC(Cc2noc(-c3cccc(-n4cnnc4)n3)n2)CC1	-5	-9
O=C(CN1CCC(C(=O)c2ccc3c(c2)OCCO3)CC1)NC1CCCC1	11	4

Record cards (already shown). Values in the order: NPYLR7 ag, NPYLR7 ag max-min
COc1ccccc1N1C(=O)C2C3C=CC(CO)(O3)C2C1=O (centres undefined) is entered as 0, -2
CCCn1c(SCc2cc(=O)n3ccsc3n2)n[nH]c1=O is entered as 2, 10
CC(C)CN1CCC(CNC(=O)c2ccc(-c3cccnc3)nc2)C1 (centres undefined) is entered as -4, -7
CCOC(=O)C1=C(C)N(C)C(=O)C1CC(=O)O (centres undefined) is entered as 8, 5
O=C(O)/C(=C/c1ccc(Br)cc1)c1ccc(S(=O)(=O)N2CCCC2)s1 is entered as -2, -2

Taken from above:
`CC1(Cc2cccc(C(F)(F)F)c2)C(=O)Nc2cc(-c3ccccc3Cl)ccc21` (centres undefined) | NPYLR7 ag max-min = 1
`O=C(CCCN1CCCC1=O)NC1CCCN(C2CCCCCC2)C1` (centres undefined) | NPYLR7 ag = 2
`CN1C[N+]([O-])=C(c2ccccc2)C1(C)C` | NPYLR7 ag = 1
